# Screening results as filed in PubChem BioAssay.
# Bead autofluor – flagged as autofluorescent in microsphere protease counterscreen; AID 624483; compound autofluorescence counterscreen, microsphere flow cytometry; active compounds read high; fluorescence intensity (no concentration beside the values); 360,000 compounds, 3.1% hits;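 active = at least 3 SD above the mean of all compounds, about 16000 in these data; inconclusive = too few beads counted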;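 note: 100 nL of 1 mM stock went into each well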
# PrP 5UTR inh – suppresses PrP 5' UTR mRNA reporter expression; AID 488862; inhibition, % (concentration not given with the values); 340,000 compounds, 0.35% hits; cell-based PrP 5' UTR mRNA reporter, plate reader;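 active = every replicate at 50% or more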;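 note: 0 = median of the neutral control wells; tested in H4 reporter cells; numbers are from one replicate; inactives centre near -14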
# Mtb hypoxia inh – Mtb hypoxia fluorescent reporter inhibition | M. tuberculosis hypoxia-regulated fluorescent reporter, fluorescence | fluorescence inhibition, % (no concentration beside the values) | 300,000 compounds, 0.1% hits | AID 1159583;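 active = 35 to 45% if threefold the growth effect, above 45% if 1.5-fold the growth effect; inactive = the rest, general growth blockers included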;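 note: wells of about 50 µL received 100 nL stock; 0% = vehicle wells and 100% = reference inhibitor wells; whole bacteria with a GFP reporter of the hypoxia response; strong numbers were not always called active; many hits fall short of the cut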
# Sa ugtP lethal – growth inhibition of S. aureus ugtP deletion strain | S. aureus RN4220 ugtP deletion, OD600 growth, 16 h; some inactives read as strong as hits | growth inhibition, % (concentration not given with the values) | 330,000 compounds, 0.54% hits | AID 1259309;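 active = z-score under -3 and OD600 up to 0.15 on both plates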;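 note: plate controls were untreated wells for no effect and antibiotic for full effect; wells of about 80 µL received 100 nL stock; the first replicate is given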
# RN4220 kill – S. aureus RN4220 growth inhibition; OD600, 16 h; inhibition, % (test concentration not listed); 330,000 compounds, 0.33% hits;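 active = z-score of -3 or lower and OD600 up to 0.18 on both plates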;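 note: plate controls were untreated cells for no effect and reference antibiotic for full effect; stock transfer was 100 nL into about 80 µL; one replicate is shown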
# BJeLR lethal – kills HRASV12-expressing BJeLR cells | 300,000 compounds, 0.17% hits | BJeLR (HRASV12) viability, CellTiter-Glo ATP luminescence, 48 h; reference of the scale not given here | inhibition, % (test concentration not listed);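 active = replicate mean above 50%; inconclusive = above 50% but judged a plate artefact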;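 note: 50 nL library stock added to about 25 µL; numbers are from one replicate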
# Mtb hypoxia inh growth – also measured in Mtb hypoxia inh; calls as there; growth inhibition, %; measured here: M. tuberculosis growth (absorbance);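 0% = vehicle and 100% = reference antibiotic; read after six days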
# Numbers without * were called inactive; ? = inconclusive; · = no result given. Rows were taken by chance. About 3.9% of those tested had a hit in this group.
# Start of the data: the first 3 entries, to show the layout:
SMILES,Bead autofluor,PrP 5UTR inh,Mtb hypoxia inh,Mtb hypoxia inh growth,Sa ugtP lethal,RN4220 kill,BJeLR lethal
O=C(NC1=NCCS1)c1ccc(Cl)c(S(=O)(=O)N2CCCC2)c1,4272,1,-4,7,-8,-1.4,-4
CCN(Cc1ccccc1)C(=O)c1cc2cc(OC)c(OC)cc2[nH]1,3352,-26,13,6,8,5.1,4
CC(C)c1nc(SCC(=O)Nc2cccc(S(N)(=O)=O)c2)n[nH]1,?,-5,3,7,2,3.9,4

# The listing, repeating the preview:
SMILES,Bead autofluor,PrP 5UTR inh,Mtb hypoxia inh,Mtb hypoxia inh growth,Sa ugtP lethal,RN4220 kill,BJeLR lethal
O=C(NC1=NCCS1)c1ccc(Cl)c(S(=O)(=O)N2CCCC2)c1,4272,1,-4,7,-8,-1.4,-4
CCN(Cc1ccccc1)C(=O)c1cc2cc(OC)c(OC)cc2[nH]1,3352,-26,13,6,8,5.1,4
CC(C)c1nc(SCC(=O)Nc2cccc(S(N)(=O)=O)c2)n[nH]1,?,-5,3,7,2,3.9,4
c1ccc2nc3c(nc2c1)CCc1nonc1-3,9665,-27,9,5,3,3.4,1
Cc1ccc(/C=N/NC(=O)c2ccc(C(=O)N/N=C/c3ccc(C)s3)o2)s1,3641,-2,·,·,·,·,11
CS(=O)(=O)N(CC(=O)NC1CCCC1)C1CCCCC1,4448,-31,2,2,5,0.7,-5
Cc1ccsc1C(=O)OCc1csc(-c2ccccc2)n1,3018,-66,·,·,39,9.3,0
CS(=O)(=O)N(CC(=O)N1CCCCC1)Cc1ccc(Cl)cc1,2124,-13,6,6,6,6.3,3
COc1cc(NC(=S)N2CCN(CCO)CC2)c(OC)cc1Cl,2503,-10,7,-2,6,1.4,-4
CC(=O)Oc1ccc(C(=O)Nc2nccs2)cc1,4216,0,1,4,3,3.9,5
COc1ccc(OC)c(Nc2nc(-c3sc(N)nc3C)cs2)c1,9960,-12,-1,5,-16,4.8,-16
O=C(NCC1CCCO1)c1nn2cccnc2c1Cl (configuration not stated),3553,-23,·,·,-12,3.8,0
Cc1cccc[n+]1CC(=O)c1ccc2c(c1)OCCO2,2227,-14,8,8,3,1.8,0
Cc1nc2ccccn2c1C(=O)C(=O)Nc1cc(F)ccc1F,4289,12,8,-1,7,-0.9,11
Cc1ccc(-n2ncc3c(=O)n(Cc4ccccn4)cnc32)cc1C,4662,-25,5,5,2,-1.0,-11
FC(F)(F)C1CCCN(c2nsc3ccccc23)C1 (configuration not stated),4893,-11,16,2,60,9.3,0
COc1cc(/C=C(\C#N)c2nnc(N3CCOCC3)n2-c2ccccc2)ccc1O,2094,-8,11,6,13,3.4,7
CCOC(=O)c1c(C)[nH]c(C(=O)COC(=O)/C=C/c2ccc(O)c(OC)c2)c1C,2199,-18,-2,-2,-9,0.7,0
COc1ccc(OC)c(NC(=O)CSc2nnc(NC(=O)c3ccco3)s2)c1,?,-13,13,4,7,-3.7,5
CCOc1ccccc1OCC(=O)Nc1ccc(N2CCCCC2)cc1,5311,-22,2,-1,18,10,7
CCN(CC)CCn1c(/N=C/c2cc(Br)ccc2O)nc2ccccc21,8086,-48,·,·,·,·,15
Cc1ccc2nc(Br)c3c(c2c1)OC(CBr)C3 (configuration not stated),3066,-11,·,·,-4,11,-3
Cc1ncc(CO)c(C=NNC(=O)c2ccccc2Br)c1O,·,·,6,-3,6,3.2,·
O=C(Nc1ccncc1)c1ccc2ccccc2c1,4459,-90,-2,8,0,-5.4,2
Cc1nn(S(=O)(=O)c2cccc([N+](=O)[O-])c2)c(C)c1Br,4558,-41,-7,3,-4,-2.2,·
CCOC(=O)CN(C(=O)CNC(=O)c1cccs1)C(C(=O)NC1CCCC1)c1ccncc1 (configuration not stated),4560,-32,5,0,-1,-2.4,-12
Cc1nnsc1C(=O)Nc1cc(Cl)ccc1Cl,10440,0,-5,6,-3,0.4,-5
CCOc1ccc(S(=O)(=O)/N=C(\N)c2ccccc2)cc1,·,-6,-13,-15,3,1.2,4
Cc1cc(/C=N/n2cnnc2)c(O)c([N+](=O)[O-])c1,2037,-18,·,·,·,·,-2
Cn1nnc(NC(=S)NC(=O)c2cc3ccccc3o2)n1,4346,-14,1,-2,-4,1.9,-9
O=C(O)c1ccn(CSc2cc(Cl)ccc2Cl)n1,6833,-8,1,-3,10,0.7,·
C/C(=N\N=C1\NC(=O)C(CC(=O)Nc2ccccc2F)S1)C1CCCCC1 (configuration not stated),5262,-6,·,·,·,·,-5
O=C(Cc1ccccc1)NCCc1c[nH]c2ccccc12,3055,-10,0,-1,10,5.8,-10
CCOC(=O)c1cnc2c(OC)cccc2c1N1CCN(c2ccccn2)CC1,4924,-15,19,11,4,12,1
COc1ccc(C2CC(c3ccc(Br)cc3)=NN2C(=O)CSC2=NCCS2)cc1 (configuration not stated),2510,-18,8,14,-13,-2.5,7
OC(CNC1Cc2ccccc2C1)c1ccccc1 (configuration not stated),2820,-29,3,7,10,2.4,-3
O=C(CNC(=O)C1COc2ccccc2O1)Nc1cc(Cl)ccc1Cl (configuration not stated),5182,-23,-1,0,2,1.3,·
O=C(NCc1ccco1)c1ccc2c(c1)CCO2,3693,-15,20,25,8,6.3,1
Cc1ccnc(SCC(=O)Nc2sc3c(c2C#N)CCC(C(C)(C)C)C3)n1 (configuration not stated),19751*,-17,5,4,36,8.3,-1
O=C(Nc1ccc(F)c(F)c1)NC1CCCCC1,3932,-44,14,16,-14,0.2,5
CCC1C(=O)N(c2nc(C)cc(C)n2)N=C1C (configuration not stated),19066*,-15,13,8,2,3.4,10
CC(C)N(CCn1c(SCC(=O)N2CC(=O)Nc3ccccc32)nc2ccccc2c1=O)C(C)C,4003,-12,-19,7,-12,-3.2,-5
CC(=O)c1cccc(NC(=S)NNC(=O)c2ccc(C)c([N+](=O)[O-])c2)c1,3186,-19,15,5,2,2.8,1
O=C(N/N=C/c1ccc([N+](=O)[O-])s1)c1ccncc1,1882,1,·,·,·,·,-5
O=S(=O)(Nc1ncnc2sc3c(c12)CCC3)c1ccc2ccccc2c1,3364,-13,4,5,27,33,·

# Grouped by structure: the compounds so far containing bromine (five)
SMILES,Bead autofluor,PrP 5UTR inh,Mtb hypoxia inh,Mtb hypoxia inh growth,Sa ugtP lethal,RN4220 kill,BJeLR lethal
CCN(CC)CCn1c(/N=C/c2cc(Br)ccc2O)nc2ccccc21,8086,-48,·,·,·,·,15
Cc1ccc2nc(Br)c3c(c2c1)OC(CBr)C3 (configuration not stated),3066,-11,·,·,-4,11,-3
Cc1ncc(CO)c(C=NNC(=O)c2ccccc2Br)c1O,·,·,6,-3,6,3.2,·
Cc1nn(S(=O)(=O)c2cccc([N+](=O)[O-])c2)c(C)c1Br,4558,-41,-7,3,-4,-2.2,·
COc1ccc(C2CC(c3ccc(Br)cc3)=NN2C(=O)CSC2=NCCS2)cc1 (configuration not stated),2510,-18,8,14,-13,-2.5,7

# The listing continues.
SMILES,Bead autofluor,PrP 5UTR inh,Mtb hypoxia inh,Mtb hypoxia inh growth,Sa ugtP lethal,RN4220 kill,BJeLR lethal
COc1ccc(-c2cc(C(=O)N3CCCCC3)no2)cc1OC,23544*,-36,15,1,4,1.7,-5
Cc1cnc(C(=O)OCc2ccc(Br)cc2F)cn1,5747,-27,-10,5,15,6.0,-4
CC(C)Oc1ccc(CC2CC(=O)NC2=O)cc1 (configuration not stated),8748,-8,4,2,-1,12,-6
Cc1ccc(C(=O)Cn2nnc3ccccc32)cc1[N+](=O)[O-],4048,-27,10,2,6,-0.4,-2
O=C(Nc1ccc2c(c1)OCO2)N1CCN(c2ccc(F)cc2)CC1,2037,-33,-1,8,0,3.8,7
CCc1ccnc(NC(=O)Nc2ccc(OCc3ccccc3)cc2)c1,3436,-5,10,14,7,4.8,0
CCOC(=O)Cc1csc(NC(=O)c2ccc(S(=O)(=O)N(CCOC)CCOC)cc2)n1,2149,-14,6,-6,6,4.9,2
CCCCCSc1nc2c(c(=O)[nH]c(=O)n2C)n1C,6664,-14,4,10,1,-14,-5
COc1cccc(CNCc2cccnc2)c1OCc1ccccc1,4335,-1,4,13,4,7.4,-8
CC(C(=O)Nc1nncs1)N1C(=O)C2C3C=CC(C3)C2C1=O (configuration not stated),2511,-8,0,-8,9,-0.3,8
CC(C)NC(=O)COc1ncnc2sccc12,18786*,-2,12,4,7,6.7,8
O=C(Nc1cccnc1)c1ccc(-c2ccc(Cl)cc2)o1,4597,-17,3,6,2,-6.3,0
CS(=O)(=O)c1ccc(Cl)c(NC(=O)COC(=O)CCCN2C(=O)c3cccc4cccc(c34)C2=O)c1,·,-16,10,0,2,7.2,-2
CC(Oc1ccccc1)C(=O)N=C1SC2CS(=O)(=O)CC2N1Cc1ccc(F)cc1 (configuration not stated),6947,-9,15,7,7,6.6,0
COc1ccc(Cl)cc1C(=O)CSc1nnnn1C1CCCC1,6001,-19,10,6,2,5.6,·

# Quoted at random: two records from the list.
SMILES,Bead autofluor,PrP 5UTR inh,Mtb hypoxia inh,Mtb hypoxia inh growth,Sa ugtP lethal,RN4220 kill,BJeLR lethal
CCOC(=O)Cc1csc(NC(=O)c2ccc(S(=O)(=O)N(CCOC)CCOC)cc2)n1,2149,-14,6,-6,6,4.9,2
CC(Oc1ccccc1)C(=O)N=C1SC2CS(=O)(=O)CC2N1Cc1ccc(F)cc1 (configuration not stated),6947,-9,15,7,7,6.6,0

# (listing goes on)
SMILES,Bead autofluor,PrP 5UTR inh,Mtb hypoxia inh,Mtb hypoxia inh growth,Sa ugtP lethal,RN4220 kill,BJeLR lethal
Nc1n[nH]c(-c2ccc(F)cc2)n1,5923,-24,4,8,-11,7.5,3
CCC(CCC(=O)Nc1ccc(S(N)(=O)=O)cc1)C(=O)O (configuration not stated),10917,-17,5,5,11,5.7,4
COc1ccc(OC)c(S(=O)(=O)N2CCCC(C(=O)NCc3ccncc3)C2)c1 (configuration not stated),3659,4,5,8,7,3.9,3
Cc1ccc2c(c1)COc1c3ccc(C(=O)NCCO)cc3nn1-2,3908,-42,13,6,0,4.9,16
O=C(NCc1ccc2c(c1)OCO2)C1CCCCC1,4298,-21,·,·,15,1.9,-4
Cc1cccc(C(=O)Nc2nnc(-c3ccco3)o2)c1,2562,-7,11,7,-3,6.1,-8
O=C(Cn1c(NCCO)nc2ccccc21)N1CCN(Cc2ccccc2)CC1,3367,-11,-7,15,0,-1.1,-6
O=C(c1ccco1)N1CCN(C(=O)C2CC(c3ccc(F)cc3)=NO2)CC1 (configuration not stated),4393,6,·,·,-3,-0.8,-8
Cc1ccc(S(=O)(=O)N2CCN(C(=O)COC(=O)c3cnc(C)cn3)CC2)c(C)c1,4080,-16,-2,-3,9,4.8,0
Cc1cccc(C)c1NC(=O)COC(=O)c1cccnc1,4490,-33,7,-1,14,3.6,3
CC(C)(C)c1ccc(C(=O)Nc2nnc(C3=COCCO3)o2)cc1,5487,-2,-2,5,8,40,5
CCN(CC)Cc1c(O)ccc2cc(-c3nc4ccccc4n3C)c(=O)oc12,3770,·,2,7,13,2.8,-8
CC1CCN(CCCCOc2ccc(Cl)cc2)CC1,3731,-27,18,8,1,2.3,-2
Cn1c(-c2ccccc2)n[nH]c1=S,5761,0,18,-1,10,4.3,0
COc1cccc2c1oc1c(SCc3nc4ccccc4[nH]3)nc(C)nc12,3459,1,·,·,4,-5.3,·
CC1=CN2C(=NC(=O)CC2(C)C(=O)N(CC(=O)NC2CCCC2)c2cc(C)cc(C)c2)C=C1 (configuration not stated),4091,-23,11,-1,-3,1.4,-6
CC1=C(C(=O)OC2CCCCCCC2)C(c2cccc(O)c2)NC(=O)N1 (configuration not stated),10552,-18,2,7,-21,9.8,-16
